eIF4H FP inh: inhibitors of RNA binding by human eIF4H. 290,000 tested, 0.94% active. inhibition, % at 35 µM. Q15056. eIF4H fluorescence polarization binding assay;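 active = 50% or more with normal probe brightness, or confirmed in later tests; inconclusive = above 50% with abnormal brightness, or retests that disagree; inactive = below 50% or failed in later tests; about a fifth of its hits are not listed in these tables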;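 note: calls also rest on retests at 20 µM and on dose response follow-up; 0% = protein and probe with vehicle and 100% = probe without protein; strong numbers were not always called active; many hits fall short of the cut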
CSC inhib: blocks cancer stem cells; cancer stem cell-like cells viability, luminescence; inhibition, % at 7.5 µM; 300,000 tested, 1.1% active; AID 2717;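 active = mean at 75% or more and at least half the replicates too; inconclusive = mean and replicates disagree; tested in HMLE shEcad cells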;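 note: 0% = median of negative and 100% = median of positive control wells; the first replicate is given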
Env fusion inh: blocks HIV Env-driven cell-cell fusion. HeLa-JRFL Env/CEM21 cell fusion, luciferase. inhibition, % at 12.3 µM. 360,000 tested, 1.1% active. AID 651610;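 active = mean replicate inhibition score of at least 50 and every replicate individually at or above 50; inconclusive = only one of the two criteria met; inactive = mean below 50 and not all replicates reaching 50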;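 note: 0% = plate neutral controls and 100% = maraviroc near 300 nM; one replicate is shown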
PABP polyA inh: blocks human PABP binding to poly(A) RNA; P11940; fluorescence polarization; inhibition, % at 35 µM; 290,000 tested, 1% active;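 active = 50% or more with normal probe brightness, or confirmed in later tests; inconclusive = above 50% with abnormal brightness, or retests that disagree; inactive = below 50% or failed in later tests; about a fifth of its hits are not listed in these tables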;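 note: calls also rest on retests at 20 µM and on dose response follow-up; controls were probe without protein and protein plus probe with vehicle; some compounds called inactive have numbers as strong as hits; many hits fall short of the cut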
MT1-MMP act inh: blocks activation of human MT1-MMP; AID 651647; GFP/RFP ratio change, % at 20 µM; P50281; HT1080 RFP-PRO-GFP cells, GFP/RFP ratio fluorescence, overnight; percent of plate control window, DMSO zero; 360,000 tested, 0.061% active;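 active = GFP/RFP ratio change of at least 30% with cell ATP level not reduced by more than half and red fluorescence within 50% of control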; note: strong numbers were not always called active
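Assay system: HT1080 RFP-PRO-GFP cells | Dosing: 20 µM single dose, 1% DMSO | Incubation: Cells overnight before dosing, compound overnight, 37 °C, 5% CO2 | Evaluation: GFP/RFP fluorescence ratio | Control set: DMSO-only wells and HT1080 RFP-L50D-GFP cell wells as references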
Rce1 inhib: yeast Ras-converting enzyme inhibition. Q03530. yeast membranes, quenched prenylated peptide cleavage fluorescence. calls only. 290,000 tested, 0.27% active. AID 2563;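 active = fall in fluorescence gain of 50% or more versus controls, with final raw signal at or below 3038400; inconclusive = same 50% fall but final raw signal above 3038400; inactive = fall in fluorescence gain under 50%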;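 note: plate controls were neutral control wells for no effect and wells lacking membranes for full effect; tested at 10 µM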
Target sequence (Q03530 whole entry, looked up): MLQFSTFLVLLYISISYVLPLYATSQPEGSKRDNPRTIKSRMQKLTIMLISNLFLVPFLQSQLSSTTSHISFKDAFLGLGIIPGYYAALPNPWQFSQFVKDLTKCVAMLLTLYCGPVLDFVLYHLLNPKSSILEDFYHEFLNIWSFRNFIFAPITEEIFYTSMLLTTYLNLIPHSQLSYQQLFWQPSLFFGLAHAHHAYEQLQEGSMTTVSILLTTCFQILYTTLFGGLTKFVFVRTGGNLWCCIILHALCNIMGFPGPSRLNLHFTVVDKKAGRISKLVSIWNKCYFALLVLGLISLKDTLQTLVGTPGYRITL
Yeast UUG start: alters start codon recognition fidelity in yeast; S. cerevisiae UUG-firefly luciferase reporter, luminescence/redox ratio; activity score, % at 18.7 µM; 350,000 tested, 0.13% active;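 active = replicate mean at a twofold rise or more, about +100% in these data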;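 note: firefly luciferase made from a UUG start codon reports start codon fidelity; reporter light over untreated wells divided by growth signal over untreated wells; some hits fall short of that in this replicate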
eIF4H FP inh retest: recorded beside eIF4H FP inh, whose call it bears; inhibition, %; compound at 20 µM; confirmation average;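 mean of two retest wells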
PABP polyA inh retest: second read-out of PABP polyA inh, no call of its own (marks repeat the call); inhibition, %; compound at 20 µM; confirmation repeats;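 mean of two retest wells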
MT1-MMP act inh RFP: recorded beside MT1-MMP act inh, whose call it bears; RFP signal change, %; measured here: RFP expression control read;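 0 = vehicle wells; hits needed this value within 50% of zero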
* hit, by the source's call; i = inactive; ? = inconclusive; . = not tested or not shown; & = joins results of further samples.

SMILES	eIF4H FP inh	CSC inhib	Env fusion inh	PABP polyA inh	MT1-MMP act inh	MT1-MMP act inh RFP	Rce1 inhib	Yeast UUG start	others
COC(=O)COc1c(Cl)cc(Cl)c2ccc(C)nc12	-5	1	24	4	1	5	i	-18
COc1ccc(NC(=O)c2sc(N3CCOCC3)nc2-c2ccccc2)c(OC)c1	63	15	21	13	4	-2	i	-3	eIF4H FP inh retest=-7;PABP polyA inh retest=6
CN(C(=O)c1ccc(C#N)cc1)c1nnc(-c2cnccn2)s1	-4	-14	-10	3	4	2	i	-14
COc1ccc(NS(=O)(=O)c2ccc(NS(C)(=O)=O)cc2)cc1	4	2	.	-1	7	12	i	.
COc1ccccc1NC(=O)CCn1c(=O)sc2ccccc21	2	.	.	4	-2	3	i	-19
CN(C)c1oc(-c2ccccc2Cl)nc1C#N	-12	-15	.	1	0	4	i	-19
COc1ccc(NC(=S)NCc2ccc(S(N)(=O)=O)cc2)cc1OC	1	-3	9	9	-5	-1	i	-19
CCOC(=O)N1CCN(C(=O)c2ccc(Oc3ccc([N+](=O)[O-])cc3)cc2)CC1	12	-9	12	7	2	-12	i	.
CC1CCN(c2nc3c(cc2C#N)COC(C)(C)C3)CC1	-6	8	6	9	-1	4	i	-9
Cc1csc(SCC(=O)NC23CC4CC(CC(C4)C2)C3)n1	3	-6	.	-11	-1	2	i	-12
N#C/C(=C\c1c(N2CCOCC2)nc2ccccn2c1=O)S(=O)(=O)c1ccccc1	-5	-1	.	3	2	3	i	5
Cc1cccc2c(Cl)cc(=O)[nH]c12	4	.	-105	0	.	.	i	.
CCC(COC)NCc1cn(-c2ccc(F)cc2F)nc1-c1ccccc1C (stereo not given)	-3	-3	27	4	-1	1	i	-13
COc1cc(Cl)ccc1OCc1cc(C(=O)NCC(C)c2ccccc2)no1 (stereo not given)	3	5	0	0	1	1	i	2
O=C(Nc1cccc2ncccc12)c1cc2ccccc2o1	-3	13	.	-1	-1	-5	i	-1
Cc1c(C(=O)N2CCOCC2)oc2ccccc12	.	-3	.	.	2	5	.	-8
NC(CO)C(=O)NNCc1ccc(O)c(O)c1O (stereo not given)	97*	18	.	8.4*	-4	3	i	1&-20	eIF4H FP inh retest=110*;PABP polyA inh retest=81*
Cc1cccc(OCC(=O)N2CCC3(CC2)CC(=O)c2ccccc2O3)c1	.	-8	-1	.	2	-7	i	-9
FC(F)(F)c1cccc(N2CCC(N=CN3CCCCCC3)=N2)c1	7	14	-6	-14	2	3	i	.
CCOC(=O)c1cnc2ccc(C)cc2c1Sc1ccc(F)cc1	-3	14	.	10	-18	-19	i	-3
COc1cccc(CNCc2cccc(Br)c2)c1OC	8	0	-2	13	1	-3	i	.
COc1ccc(NC(=O)Nc2cccc3ccccc23)c(OC)c1	6	-2	9	2	-2	-3	i	5
Cn1c(CNC(=O)c2ccc(Cl)cc2)nnc1SCC(=O)Nc1sc2c(c1C#N)CCCC2	0	-6	-9	3	0	0	i	-22
CCN(CC)CCn1c2c(c(SCC(=O)Nc3ccccc3Cl)nc1=O)CCCC2	.	5	-19	.	-2	1	i	.

A draw from above in order of heavy-atom count, largest number first.
SMILES	eIF4H FP inh	CSC inhib	Env fusion inh	PABP polyA inh	MT1-MMP act inh	MT1-MMP act inh RFP	Rce1 inhib	Yeast UUG start	others
Cn1c(CNC(=O)c2ccc(Cl)cc2)nnc1SCC(=O)Nc1sc2c(c1C#N)CCCC2	0	-6	-9	3	0	0	i	-22
CCN(CC)CCn1c2c(c(SCC(=O)Nc3ccccc3Cl)nc1=O)CCCC2	.	5	-19	.	-2	1	i	.
CCC(COC)NCc1cn(-c2ccc(F)cc2F)nc1-c1ccccc1C (stereo not given)	-3	-3	27	4	-1	1	i	-13
Cc1cccc(OCC(=O)N2CCC3(CC2)CC(=O)c2ccccc2O3)c1	.	-8	-1	.	2	-7	i	-9
FC(F)(F)c1cccc(N2CCC(N=CN3CCCCCC3)=N2)c1	7	14	-6	-14	2	3	i	.
O=C(Nc1cccc2ncccc12)c1cc2ccccc2o1	-3	13	.	-1	-1	-5	i	-1
CC1CCN(c2nc3c(cc2C#N)COC(C)(C)C3)CC1	-6	8	6	9	-1	4	i	-9
COc1cccc(CNCc2cccc(Br)c2)c1OC	8	0	-2	13	1	-3	i	.
Cc1c(C(=O)N2CCOCC2)oc2ccccc12	.	-3	.	.	2	5	.	-8
Cc1cccc2c(Cl)cc(=O)[nH]c12	4	.	-105	0	.	.	i	.

(next part)
SMILES	eIF4H FP inh	CSC inhib	Env fusion inh	PABP polyA inh	MT1-MMP act inh	MT1-MMP act inh RFP	Rce1 inhib	Yeast UUG start	others
COc1cccc(/C=N/NC(=O)c2cccs2)c1	-6	2	-58	-4	0	1	i	.
CC(=O)c1cn(-c2ccc(Cl)cc2)c(=O)n(Cc2ccc(F)cc2)c1=O	2	5	21	-3	-2	-2	i	.
CCS(=O)(=O)N1CCc2nc(-c3ccccc3)sc2C1	2	-2	-61	-7	2	-2	i	-18
Nc1ccc(S(=O)(=O)c2ccc(N)nc2)cc1	.	.	10	.	-2	-3	.	-4
CCCCS(=O)(=O)Nc1ccc(Cc2ccncc2)cc1	5	-3	.	-2	-1	-10	i	-12
CC(=O)N1CCc2cc(S(=O)(=O)NCCCOC(C)C)ccc21	-3	-7	-37	0	2	-7	i	-8
Clc1ccc(-c2nnc(SCc3nc4ccccc4s3)o2)cc1	-11	-8	-18	-12	-6	4	i	.
O=C(c1nnc(-c2ccncc2)o1)c1ccccc1Cl	7	-9	30	0	0	-2	i	1
COc1ccccc1NC(=O)C1CCC(CNc2c(N3CCCCC3)c(=O)c2=O)CC1 (stereo not given)	0	-6	8	3	4	2	i	-11
Cc1ccccc1C(=O)NNC(=O)Cc1ccccc1	-11	-10	.	-4	-1	3	i	-14
CCCCn1c(N)c(N(CCC(C)C)C(=O)CSc2nnc(C)s2)c(=O)[nH]c1=O	-6	13	6	-4	6	1	i	-8
CC(OC(=O)CCCC(=O)Nc1ccc(F)cc1)C(=O)c1ccccc1 (stereo not given)	2	-8	3	4	4	5	i	-9
CC(=O)c1ccc(NC(=O)Nc2ccc([N+](=O)[O-])cc2C)cc1	11	14	15	6	-3	-6	i	-35
Cc1ccc(Sc2ccc(C(=O)N(C)C)cc2[N+](=O)[O-])cc1	4	15	-5	-7	-3	2	i	.
O=C(CSc1ncc(C(=O)O)n1-c1ccc(F)cc1)NCc1ccc2c(c1)OCO2	-2	-11	21	-10	-2	1	i	.
CSc1ccccc1NC(=O)COC(=O)c1ccc(O)cc1	0	-11	-5	-13	1	-6	i	-11
Cc1ccc2cc3c(NC(=O)c4cccnc4)nn(C)c3nc2c1	9	-8	.	-7	6	2	i	-2
CNC(=S)N/N=C/c1cn(Cc2ccc(C)cc2)c2ccccc12	-3	109*	26	10	-2	-17	i	-34
Cn1nc(-c2ccccc2)cc1NC(=O)Nc1ccccc1F	2	3	-4	2	5	2	i	-20
Cn1cc(C=O)c2cc(F)ccc21	-4	-2	14	11	0	4	.	.
COc1cccc(CNCc2ccccc2OC)c1	7	-12	-10	5	1	1	i	1
CCOC(=O)C(=O)N1CCN(CC)CC1	-2	-9	?	-2	.	.	i	.
O=C(O)CCCCC1SCC2NC(=O)NC21 (stereo not given)	-4&2	-3	.	-4&7	-2	2	i	14
CC(C)(C)NC(=O)C(c1ccncc1)N(C(=O)Cn1nnc(-c2ccc(F)cc2)n1)c1ccccc1 (stereo not given)	-9	-7	28	-11	0	3	i	.

Overlap with the part before: 2 compounds; new compounds follow.
SMILES	eIF4H FP inh	CSC inhib	Env fusion inh	PABP polyA inh	MT1-MMP act inh	MT1-MMP act inh RFP	Rce1 inhib	Yeast UUG start	others
O=C(O)CCCCC1SCC2NC(=O)NC21 (stereo not given)	-4&2	-3	.	-4&7	-2	2	i	14
CC(C)(C)NC(=O)C(c1ccncc1)N(C(=O)Cn1nnc(-c2ccc(F)cc2)n1)c1ccccc1 (stereo not given)	-9	-7	28	-11	0	3	i	.
Cc1ccccc1NC(=O)c1ccc2c(c1)CCN2S(C)(=O)=O	-2	-8	8	-3	0	0	i	-24
NC(=O)Cn1cc(/C=N/NC(=O)c2ccc(Cn3cc(Cl)cn3)o2)c(-c2ccccc2)n1	-8	-11	-10	-16	-8	5	i	0
CCCc1cc(=O)[nH]c(SCC(=O)c2ccc(S(=O)(=O)N3CCCC3)cc2)n1	-9	-7	-114	-10	2	-3	i	-19
O=C(NCc1ccccn1)c1cn(Cc2ccccc2)nn1	-8	9	.	0	1	-1	i	-3
COC(=O)CN1C(c2ccc(Cl)cc2)=Nc2ccc(Cl)cc2C1c1ccccc1 (stereo not given)	12	.	80*	2	-51	-38	i	.
CCC(C)NC(=O)c1cc2cc3ccc(OC)cc3nc2o1 (stereo not given)	-6	22	-48	-8	3	-1	i	1
C=C(C)c1ccc(C(C)(C)NC(=O)N2CCN(C)CC2)cc1	2	-3	.	-1	-2	1	i	-12
CCCCCC1CCC(c2ccc(/C(N)=N/O)cc2)CC1 (stereo not given)	-2	22	3	7	-4	-2	i	-14
Cc1ccc(S(=O)(=O)N2CCN(C)CC2)cc1C	-10	-3	-1	-10	0	1	i	-4
O=C(Nc1ccc(N2CCOCC2)cc1)c1cc(F)c(F)cc1Cl	-9	3	.	-2	10	3	i	-11
CCc1ccc(NC(=O)N(Cc2cccnc2)Cc2ccco2)cc1	-5	-11	-8	7	1	0	i	-10
Nc1nnc(SCC(=O)N2CCN(c3ccccc3)CC2)s1	0	12	-63	-5	-2	1	i	.
O=C(c1cccs1)N(CCO)Cc1cc2cc3c(cc2[nH]c1=O)OCCO3	6	.	.	-3	.	.	i	.
Cc1ccc(-c2ccc(CCC(=O)O)o2)cc1	-8	13	-53	-5	-1	-2	i	-19
CCCn1cc(CN2CCC(n3nccc3NC(=O)c3ccccc3)CC2)c(C)n1	-2	-6	12	-9	0	4	i	-14
Fc1ccc(-c2csc(NC3=NCCC3)n2)cc1	-7	1	-5	16	5	1	.	.
CN(Cc1cccnc1)C(=O)CC1C(=O)NCCN1CC(c1ccccc1)c1ccccc1 (stereo not given)	11	8	-49	6	-1	-1	i	.
O=C(N=C1SC2CS(=O)(=O)CC2N1c1ccc(Cl)cc1)C1CCCO1 (stereo not given)	-11	-9	-2	4	-4	1	i	.
COc1ccccc1-n1c(SCC(=O)O)nc2c(sc(=S)n2-c2ccc(Cl)c(C)c2)c1=O	-4	-3	6	2	-3	-1	i	-19
CCn1c(CCNC(=O)c2cccs2)nnc1SCC(=O)Nc1cccc(Cl)c1	.	-9	-35	.	.	.	i	.
CNC(=O)C1CC(=O)N(CCc2ccc(C)cc2)C1 (stereo not given)	-10	-22	22	7	3	7	i	10
Cc1cc(C)c(C(=O)Nc2cccc(F)c2)c(Cl)n1	5	8	8	0	3	0	i	.
COc1ccc(CCNc2cc(C)nc(N)n2)cc1OC	-1	-5	-7	6	1	-3	i	18
Clc1ccc(CNc2nc(CN3CCOCC3)nc3scc(-c4ccccc4)c23)cc1	-6	-12	.	4	-22	-20	i	.
O=C(CN1C(=O)NC(CCc2ccccc2)C1=O)Nc1ccccc1C(F)(F)F (stereo not given)	.	-6	5	.	0	0	.	-16

Screens (PubChem BioAssay)
